NPYLR7 agonist: activates Aedes aegypti NPYLR7 receptor | HEK293T NPYLR7/Galpha15, GCaMP6s calcium fluorescence | activation, % at 10 µM | 0.15% of 270,000 active; in the data active = activation above about 40%;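 also: 0% = vehicle and 100% = reference agonist at the receptor; some compounds past the cut are filed as inactive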
NPYLR7 agonist max-min: recorded beside NPYLR7 agonist, whose call it bears; activation, %; measured here: Max-Min RFU normalised activation; some inactives read as strong as hits;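 span of the calcium signal over five minutes; 0% = vehicle and 100% = native peptide agonist; compound fluorescence can raise it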
The depositor's hits bear a star.

SMILES	NPYLR7 agonist	NPYLR7 agonist max-min
O=C1/C(=C/c2ccc(O)cc2)SC(=Nc2ccccc2)N1C1CCCC1	-8	-11
CCCCCC(=O)N(CN1C(=O)c2ccccc2C1=O)c1ccccc1OC	19	9
CN(Cc1ccccc1)c1ncccc1CNC(=O)[C@H]1C[C@@H]2C=C[C@H]1C2	4	0
O=c1[nH]c(Cn2cc(C(F)(F)F)cc(Cl)c2=O)nc2sc3c(c12)CCC3	-1	-2
Cc1ccccc1-c1nc2ccc(Br)cn2c1NC(C)(C)C	21	28
CC1(C(=O)O)CCCCCCC1O (configuration not stated)	-8	-8
CC(=O)NNC(=S)NC1CCCC1	11	11
CC(=O)CC1(O)C(=O)N(CCCOc2ccccc2C)c2c(C)cccc21 (configuration not stated)	-7	-9
CN(C)c1cccc(C(NC(=O)c2ccc(Br)cc2)c2ccc(S(C)(=O)=O)cc2)c1 (configuration not stated)	-4	-5
CCOC(=O)N1CCC(N2CCN(Cc3ccc(OCC)cc3)C(CCO)C2)CC1 (configuration not stated)	5	-2
COc1ccc(-n2cc(-c3ccccc3)c3c(=O)[nH]cnc32)cc1	-8	-13
COc1cc2c(cc1OC)C(C(C)C)N(C(=O)c1cccs1)CC2 (configuration not stated)	-5	5
CCCCn1nnnc1CNC(=O)c1ccc(-n2ccc(C)n2)cc1	-12	-13
CC1=NN(c2ccccc2)C(c2ccccc2)C1 (configuration not stated)	-5	-3
CC1=CC[C@@H]2CN(C(=O)c3cccc4nccnc34)C[C@@H]2C1	4	2
COc1ccc(-n2ncc(Oc3ccc(Cl)c(C)c3)c(Nc3cccc(C(=O)NCc4cccc(F)c4)c3)c2=O)cc1	-1	0
CC1C(=O)N(c2cccc(Br)c2)CCN1C(=O)c1ccc(Cl)cc1Cl (configuration not stated)	-2	5
CCOC(=O)c1cnc(-c2ccccc2)nc1NC(CC)c1ccccc1 (configuration not stated)	26	20
COc1ccccc1C(=O)N1CCC[C@@H]1C(=O)NC1CCC(NC(=O)c2ccccc2)CC1 (some centres not stated)	28	23
Clc1nc(-c2ccccc2Cl)c2cc(Br)ccc2n1	-8	-12
Cc1ccc(CNC(=O)CN2CCCN(C)CC2)cc1	0	0
CN(Cc1cnc(N2CCCC2)nc1)Cc1nc(-c2cccnc2)no1	0	0
O=c1ccc(-c2cccs2)nn1CCNS(=O)(=O)c1ccccc1	5	4
O=S(=O)(Nc1ccccn1)c1ccc(Br)cc1	6	3
O=C(CNC(=O)c1cccc(Cl)c1)N=Nc1c(O)n(Cc2ccccc2)c2ccccc12	1	-3
O=c1nc(SCc2ccccc2)c2c([nH]1)CCC2	-5	-9
Cc1cc(C)n(CCNC(=O)CCc2nnc(CCCc3ccccc3)o2)n1	1	-1
CN(C)c1ncnc(NCC(c2ccc(F)cc2)N2CCOCC2)c1N (configuration not stated)	5	1
CCn1cc(C(CC(=O)NCCN2CCOCC2)c2cccc(Cl)c2)c2ccccc21 (configuration not stated)	7	6
O=C(c1ccc(S(=O)(=O)N2CCCCC2)cc1)N(Cc1ccc(F)cc1)C1CC1	3	9
CCN1c2ccccc2Sc2cc(C=O)ccc21	8	6
COc1ccc(S(=O)(=O)NCCCn2nc(-c3cccs3)ccc2=O)cc1F	1	-1
O=C(O)[C@H]1C[C@@H](O)CCN1C(=O)C1(c2ccc(Cl)cc2)CC1	4	3
Cc1sc(NC(=O)C2CC2)c(C(=O)N2CCC3(CC2)OCCO3)c1C	7	5
COc1ccc(NC2CCCN(C(=O)c3ccc(N4CCCC4=O)cc3)C2)cc1OC (configuration not stated)	24	11
O=C(Nc1ccc(SC(F)F)cc1)c1ccc(-n2cncn2)cc1	6	0
Cn1ccnc1C(NC(=O)CN1C(=O)NC(=O)C1(C)C)C1CC1 (configuration not stated)	-4	-5
COc1cc2sc(C(=O)Nc3c(C)cccc3OC)c(Cl)c2cc1OC	12	16
CC(NC(=O)c1ccc(-c2cc(-c3ccc(Cl)cc3Cl)[nH]n2)cc1)c1ccc(Br)cc1 (configuration not stated)	2	-3
CCOC(=O)c1cc(CC)sc1N1C(=O)CC(Sc2ccccc2C(=O)OC)C1=O (configuration not stated)	4	2
NC(=O)c1cnc2n1CCN(C(=O)c1cn3ccsc3n1)C2	2	5
Cc1ccc(-c2ccc(=O)n(CCCNC(=O)NC3CCCCC3)n2)cc1	-2	-3
O=C(NCCn1ncc2c(=O)n(Cc3ccc([N+](=O)[O-])cc3)cnc21)c1ccc(C(F)(F)F)cc1	-3	-9
Cc1ccc(NC(=O)CC(=O)N2Cc3ccccc3CC2C(N)=O)cc1 (configuration not stated)	12	8
CN(CC1(CO)CCOCC1)c1nc(C2CCCC2)nc2c1CNC2	6	3
C=CCNc1c([N+](=O)[O-])c(=O)oc2ccccc12	-2	-1
NCc1csc(CNC(=O)c2ccccc2)n1	3	1
CN(Cc1cccc(Cn2cccn2)c1)Cc1cc(-c2ccccc2)no1	7	6
O=C1N(Cc2ccccn2)C(=O)C2(CCN(CC3CC=CCC3)CC2)N1Cc1ccccc1 (configuration not stated)	9	0
COCCn1cc(NC(=O)N(C)C2CCN(C)CC2)c2ccccc21	13	3
The listing continues.
SMILES	NPYLR7 agonist	NPYLR7 agonist max-min
CSc1ccc(COc2coc(CN3CCN(C(=O)c4cccc5c4-c4ccccc4C5=O)CC3)cc2=O)cc1	1	10
C[C@@H]1CCC2[C@](C)(CO)[C@@H](O)CC[C@]2(C)[C@@]12CC[C@@](CO)(CCO)O2 (some centres not stated)	-5	-10
Cc1ncc(CC(=O)N2CCOC(C(F)(F)F)C2)c(=O)[nH]1 (configuration not stated)	0	-3
COC(=O)COC(=O)c1cc2ccccc2[nH]1	6	-1
CN(Cc1nc2c(s1)CCCC2)C1CCN(c2ccc(C(=O)N[C@H]3CCCCNC3=O)cc2)CC1	5	5
COC(=O)C1=C(C)NC(C)=C(C(=O)OCCCBr)C1c1cccc([N+](=O)[O-])c1 (configuration not stated)	-3	-9
CC(O)Cc1nsc(NC(=O)c2ccc(Br)o2)n1 (configuration not stated)	-1	-1
COc1ccc(OCc2ccc(-c3nc(C#N)c(N(C)C)o3)o2)cc1	0	2
N#Cc1cccc(-c2ccnc(N[C@H]3CO[C@H]4[C@@H]3OC[C@H]4OCc3ccccc3)n2)c1	-11	-22
CC1(C(=O)N2CCN(C(=O)c3ccco3)CC2)CCN1Cc1ccc(OC(F)(F)F)cc1 (configuration not stated)	0	-1
CCC1(c2ccc(C)cc2)NC(=O)N(CN(C)CC(=O)NC(C)C)C1=O (configuration not stated)	6	5
CC(C)NC(=O)Cn1c(CO)cnc1SCC(=O)NCCc1ccccc1	4	2
O=C(NCc1ccc(Cl)s1)C1CCC(=O)N(CCN2CCOCC2)C1 (configuration not stated)	-3	-4
COc1ccccc1-n1cc(C(=O)NCc2cccnc2-n2ccnc2)cn1	4	0
COc1ccc(OC)c(-c2nc3cccc(C)n3c2NCc2ccccc2)c1	-4	4
CCn1cc(Cn2ccnc2-c2ccc3occc3c2)cn1	4	0
COc1cn(CC(=O)Nc2cccc(C(F)(F)F)c2)c(CN2CCC(C)CC2)cc1=O	-2	-3
O=C(NCc1ccccc1)Nc1c[nH]c2ccccc12	-3	-7
CCOC(=O)C(C)Sc1nnc2n1CCN2c1ccc(OC)cc1 (configuration not stated)	9	8
COc1ccc(C(=O)CC2(O)C(=O)N(CC(N)=O)c3ccccc32)c(OC)c1 (configuration not stated)	-3	-2
COc1cccc(C2=NN(C(=O)CN3CCC4(CC3)OCCO4)C(c3ccc(Cl)cc3)C2)c1 (configuration not stated)	24	15
CCN(CCn1cccn1)Cc1ccc2cccc(O)c2n1	13	11
O=C(Nc1ncccc1OC(F)F)c1cccc(Cl)c1Cl	7	5
COc1ccc(-c2ccc(C(=O)N3CCc4ccccc4C3c3ccc(F)cc3)s2)c(OC)c1OC (configuration not stated)	18	9
CN(Cc1ccc(-n2cccn2)cc1)Cc1cccc2c1OCO2	8	5
CCCC(CCC)C(=O)NCc1nnnn1-c1ccc(C)c(C)c1	-7	-4
COc1cc(C=C2N=C(c3ccc(Cl)c(Cl)c3)OC2=O)cc(OC)c1OCC(N)=O	1	18
O=C(NCCCn1nccc1C1CC1)c1ccccc1C1CCNC1 (configuration not stated)	17	14
CCn1cc(NS(=O)(=O)c2ccc(Cl)s2)cn1	-1	-3
Cc1cc2cc(CCNC(=O)c3ccc(Br)o3)c(=O)[nH]c2cc1C	0	5
CC(C)CN(Cc1ccc(OS(=O)(=O)c2ccc(F)cc2)cc1)S(=O)(=O)c1ccc(Cl)cc1	21	12
CCOc1ccccc1NC(=O)N(CCOC)CC(=O)N(CCc1c[nH]c2ccccc12)Cc1ccc(OC)c(OC)c1	17	26
CCOc1ccccc1C(=O)N1CCC(c2nc(-c3ccc(Cl)cc3)no2)CC1	5	0
CCOC(=O)c1cc(-c2cccc(NC(=O)c3ccc(OC)cc3)c2)n(-c2cccc(F)c2)n1	20	11
Cc1ccc2nc(C3CCCN3C(=O)CCc3n[nH]c4c3CCCC4)[nH]c2c1 (configuration not stated)	0	-1
C=CCNCc1nccn1Cc1ccc(Cl)cc1Cl	0	-2
O=C(OCc1nc(C(=O)NCCc2c[nH]c3ccccc23)cs1)c1ccccc1	-18	-30
CCOc1ccc(NS(=O)(=O)c2c(C)noc2C)cc1S(=O)(=O)N1CCCC1	-2	6
COc1cccc2cc(C(=O)N(CCn3nc(C)cc3C)c3nc4ccccc4s3)oc12	-17	-23
CC(C)S(=O)(=O)c1ccc(C(=O)NCc2cccc(CN3CCCCCC3)c2)cc1	3	5
CCOc1ccc(C(=O)NCCc2csc3nc(-c4cccc(C)c4)nn23)cc1	2	0
O=C(Nc1ccnn1C1CCN(Cc2cn[nH]c2-c2cccc(F)c2)CC1)c1ccccc1	17	8
NC(=O)NCC1CCCCN1C(=O)c1cc(F)c(F)c(F)c1 (configuration not stated)	-2	-8
Cc1ccc(C(C2Sc3nc(C)nn3C2=O)N2CCCC(C)C2)cc1 (configuration not stated)	0	-2
Cc1noc(C)c1CNC(=O)N1CCCC1C(C)C (configuration not stated)	-6	-7
Cc1cc(C)c(C#N)c(SCc2cn3cccnc3n2)n1	12	5
CN(CCc1ccccc1)Cc1ccc2n1CCN=C2c1ccccc1	26	19
Cc1cccc(COC(CN2CCN(C(=O)NCC3CCCCC3)CC2)c2ccc(Cl)cc2)c1 (configuration not stated)	0	10
COc1ccc(CC2=NOC(C(=O)NCCC3COc4ccccc4O3)C2)cc1 (configuration not stated)	15	1
CCOC(=O)C1CCN(c2cc(Oc3ccc(F)c(F)c3)ncn2)CC1	-12	-9
Next part:
SMILES	NPYLR7 agonist	NPYLR7 agonist max-min
CO[C@H]1[C@H](NC(=O)CSC)c2ccccc2C12CCN(Cc1cnn(-c3ccc(F)cc3)c1)CC2	21	16
CCCCCOC(=O)C1=C(C)NC2=C(C(=O)CCC2)C1c1coc2ccccc2c1=O (configuration not stated)	3	13
O=C(c1cncn1-c1ccc(-c2cc(C(F)(F)F)cc(C(F)(F)F)c2)cc1)N1Cc2ccccc2C1	3	1
CCOC(=O)C1C(=O)NC(N2CCN(c3ccccc3)CC2)=NC1c1ccc(OC)cc1 (configuration not stated)	-1	-4
COc1ccc(-c2c(C(C)C)nn3c(N)c(C#N)nnc23)cc1	-2	-8
O=C(O)COc1ccccc1CN1CC(c2ccncc2)C1	-11	-12
Brc1cccc(C2CC(c3ccccc3)n3nnnc3N2)c1 (configuration not stated)	3	1
COc1ccc(NC(=O)CSc2nnc3c(n2)-c2cccc4cccc-3c24)cc1	-2	-6
Cc1noc(-c2ccco2)c1C(=O)NC(C)CCc1ccccc1 (configuration not stated)	-4	2
CCC(C)N(Cc1ccsc1)C(=O)c1cn2c(n1)CNCC2 (configuration not stated)	9	0
O=C(O)C1CCN(c2ccc(Br)cn2)CC1	0	-1
CCCCOc1ccc(C(=O)NCc2nnc(SCC(=O)Nc3nccs3)n2-c2cccc(C(F)(F)F)c2)cc1	-4	6
CC(=O)Nc1ccnn1CC1=CCN(Cc2cc(C)ccc2C)CC1	5	6
CSCC(=O)N1CCC2(CCCN(Cc3ccc(F)c(F)c3)C2)C1 (configuration not stated)	2	1
Cc1nn(Cc2csc(C(C)C)n2)c(N)c1C#N	-27	-22
Cc1nn(CCNS(=O)(=O)NCc2ccccc2)c(C)c1Cl	6	5
Cc1nn(C)c(C)c1CN(C)C(=O)CC(c1ccccc1)c1ccccc1F (configuration not stated)	-1	-4
CNS(=O)(=O)c1ccc(CN2CCCC(CCc3ccc(F)cc3)C2)cc1 (configuration not stated)	-9	-8

Some of the compounds tested; the hit share may differ from the screen's.
